Screening data deposited in PubChem BioAssay by Broad Institute.
AF4-AF9 inh – inhibitors of human MLL-AF4/AF9 interaction. AlphaScreen, biotin-AF4 peptide binding to FLAG-AF9. inhibition, % at 10 µM. AID 651704. P42568. 0.47% of 350,000 active;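 active means every replicate reaching a set inhibition limit, whatever the replicate mean, cut at about 25% in these data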;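 further: 0% = plate neutral control median and 100% = total signal loss; the record names both 10 and 1 µM as test concentration; the first replicate is given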
Target sequence (P42568 whole entry, looked up): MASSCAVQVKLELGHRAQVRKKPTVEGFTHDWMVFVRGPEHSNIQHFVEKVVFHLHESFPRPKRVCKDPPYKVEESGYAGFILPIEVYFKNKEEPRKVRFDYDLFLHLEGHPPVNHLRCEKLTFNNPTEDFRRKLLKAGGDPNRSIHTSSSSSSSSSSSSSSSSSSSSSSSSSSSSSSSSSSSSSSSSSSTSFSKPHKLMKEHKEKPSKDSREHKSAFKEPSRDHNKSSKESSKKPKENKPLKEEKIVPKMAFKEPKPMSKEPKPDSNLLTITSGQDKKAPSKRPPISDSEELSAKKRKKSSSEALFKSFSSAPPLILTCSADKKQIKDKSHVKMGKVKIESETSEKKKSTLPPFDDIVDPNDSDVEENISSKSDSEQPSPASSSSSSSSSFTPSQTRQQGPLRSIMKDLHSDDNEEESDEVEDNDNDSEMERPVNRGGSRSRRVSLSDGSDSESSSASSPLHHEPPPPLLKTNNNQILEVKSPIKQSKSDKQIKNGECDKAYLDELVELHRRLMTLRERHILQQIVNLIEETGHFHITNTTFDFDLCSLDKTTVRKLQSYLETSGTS
Ecoli rRNA inh – selective bacterial rRNA inhibition in E. coli | E. coli WT GFP vs humanized-ribosome RFP mutants, fluorescence, 24 h; active compounds read low; DMSO median 0, no signal -100 | 1.6% of 350,000 active | AID 720706 | GFP signal change (wild-type ribosome), % (no concentration beside the values);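 active means significant combined selectivity score with lowered wild-type GFP, culture density cut under 30%, mutant RFP and density less affected; inactive means any of these conditions unmet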; further: one replicate is shown; some compounds called inactive have numbers as strong as hits
Ecoli rRNA inh OD600 – also measured in Ecoli rRNA inh; calls as there; OD600 change, %; measured here: OD600 growth;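 optical density of the mix in the first replicate; 0 = DMSO median and -100 = no signal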
Ecoli rRNA inh RFP – recorded beside Ecoli rRNA inh, whose call it bears; RFP signal change, %; measured here: RFP humanized mutant strains;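 first replicate; 0 = DMSO median and -100 = no signal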
An asterisk follows results filed as active. Only part of the results is shown. The share of hits here may be higher or lower than overall.

What do the screens show for `CCCNC(=O)N(C)C[C@@H]1Oc2ncc(C#CCC(C)C)cc2C(=O)N([C@H](C)CO)C[C@H]1C`?
AF4-AF9 inh: -2.1; Ecoli rRNA inh: 1; Ecoli rRNA inh OD600: -3; Ecoli rRNA inh RFP: -2.5

How did CC(C)(O)C#Cc1ccc([C@H]2[C@@H](CO)N3CCCCN(C(=O)c4cccnc4)C[C@@H]23)cc1 do in these assays?
AF4-AF9 inh: -4.6; Ecoli rRNA inh: 7; Ecoli rRNA inh OD600: 18; Ecoli rRNA inh RFP: -5.1

What do the screens show for `CCCCCNC(=O)C(c1ccc(-c2ccccc2)cc1)n1c(=O)c(-c2ccccc2)nc2ccccc21` (configuration not stated)?
AF4-AF9 inh: -7.7; Ecoli rRNA inh: 9; Ecoli rRNA inh OD600: 3; Ecoli rRNA inh RFP: -1.4

Results for C[C@@H]1CCCCO[C@H](CN(C)S(C)(=O)=O)[C@@H](C)CN([C@@H](C)CO)C(=O)c2cc(NC(=O)Nc3ccc(C(F)(F)F)cc3)ccc2O1 ?
AF4-AF9 inh: 7.2; Ecoli rRNA inh: 1; Ecoli rRNA inh OD600: -13; Ecoli rRNA inh RFP: 3.8

What do the screens show for `C[C@@H]1CN([C@@H](C)CO)C(=O)Cc2cc(NS(=O)(=O)c3ccc(F)cc3)ccc2O[C@@H]1CN(C)Cc1ccc(C(F)(F)F)cc1`?
AF4-AF9 inh: 0.2; Ecoli rRNA inh: 0; Ecoli rRNA inh OD600: -7; Ecoli rRNA inh RFP: 4.6

What do the screens show for `CC(=O)Nc1cc(-c2cccc(F)c2)cn2c(-c3ccccc3)cnc12`?
AF4-AF9 inh: 0.2; Ecoli rRNA inh: -9; Ecoli rRNA inh OD600: -10; Ecoli rRNA inh RFP: -2.5

How did CNC[C@@H]1Oc2ncc(/C=C/c3ccccc3)cc2C(=O)N([C@@H](C)CO)C[C@@H]1C do in these assays?
AF4-AF9 inh: 9.8; Ecoli rRNA inh: 3; Ecoli rRNA inh OD600: 13; Ecoli rRNA inh RFP: -0.6

What do the screens show for `N#C[C@@H]1[C@@H](c2ccc(-c3cccnc3)cc2)[C@H](CO)N1C(=O)C1CC1`?
AF4-AF9 inh: -3.3; Ecoli rRNA inh: 0; Ecoli rRNA inh OD600: 1; Ecoli rRNA inh RFP: 0.7

What do the screens show for `CC=Cc1ccc2n(c1=O)C[C@H]1[C@H](CO)[C@@H](C(=O)NCCC)[C@@H]2N1CC1CCOCC1` (mixture of isomers)?
AF4-AF9 inh: -26; Ecoli rRNA inh: 1; Ecoli rRNA inh OD600: -5; Ecoli rRNA inh RFP: -0.8

How did CCNC(=O)C[C@H]1C=C[C@@H](NC(=O)C2CCC2)[C@@H](CO)O1 do in these assays?
AF4-AF9 inh: -3.1; Ecoli rRNA inh: 2; Ecoli rRNA inh OD600: 3; Ecoli rRNA inh RFP: 1.1

Results for C[C@H]1CN([C@@H](C)CO)C(=O)CCCn2nncc2CO[C@H]1CN(C)Cc1ccc2c(c1)OCO2 ?
AF4-AF9 inh: -0.3; Ecoli rRNA inh: -1; Ecoli rRNA inh OD600: 6; Ecoli rRNA inh RFP: 0.3

How did C[C@@H]1CN([C@H](C)CO)C(=O)c2cc(NS(=O)(=O)c3ccc(Cl)cc3)ccc2O[C@@H]1CN(C)CC1CCCCC1 do in these assays?
AF4-AF9 inh: 2.6; Ecoli rRNA inh: -1; Ecoli rRNA inh OD600: -12; Ecoli rRNA inh RFP: -0.1

What do the screens show for `Cc1ccc(S(=O)(=O)N(C)C[C@H]2Oc3ccc(NS(C)(=O)=O)cc3C(=O)N([C@H](C)CO)C[C@@H]2C)cc1`?
AF4-AF9 inh: -1.7; Ecoli rRNA inh: 0; Ecoli rRNA inh OD600: 3; Ecoli rRNA inh RFP: -2.6

What do the screens show for `CCCNC(=O)C[C@H]1CC[C@H]2[C@@H](COC[C@@H](O)CN2C(=O)c2cc(Cl)cc(Cl)c2)O1`?
AF4-AF9 inh: -1.0; Ecoli rRNA inh: 3; Ecoli rRNA inh OD600: -2; Ecoli rRNA inh RFP: 1.7

What do the screens show for `O=C(C[C@H]1CC[C@H](NC(=O)NC2CCCC2)[C@H](CO)O1)NCc1ccc(F)cc1`?
AF4-AF9 inh: -1.3; Ecoli rRNA inh: -2; Ecoli rRNA inh OD600: -13; Ecoli rRNA inh RFP: -1.1

How did C[C@@H]1CN([C@@H](C)CO)C(=O)c2cccc(NC(=O)Nc3ccc(C(F)(F)F)cc3)c2O[C@H]1CN(C)Cc1ccc(Cl)c(Cl)c1 do in these assays?
AF4-AF9 inh: 1.2; Ecoli rRNA inh: -1; Ecoli rRNA inh OD600: 2; Ecoli rRNA inh RFP: 0.7

Results for CC(C)CC#Cc1ccc2c(c1)O[C@@H](CN(C)C(=O)CN(C)C)[C@@H](C)CN([C@H](C)CO)S2(=O)=O ?
AF4-AF9 inh: 5.4; Ecoli rRNA inh: 6; Ecoli rRNA inh OD600: -3; Ecoli rRNA inh RFP: 2.4

How did CC(C)C#Cc1ccc([C@@H]2[C@@H](CO)N3CCCCN(S(=O)(=O)Cc4ccccc4)C[C@H]23)cc1 do in these assays?
AF4-AF9 inh: 7.1; Ecoli rRNA inh: -59; Ecoli rRNA inh OD600: -72; Ecoli rRNA inh RFP: -14

Results for C[C@@H]1CN([C@@H](C)CO)C(=O)c2cc(NC(=O)Cc3cn(C)c4ccccc34)ccc2O[C@H]1CN(C)C(=O)Nc1ccc2c(c1)OCO2 ?
AF4-AF9 inh: 4.7; Ecoli rRNA inh: 1; Ecoli rRNA inh OD600: 2; Ecoli rRNA inh RFP: 0.3

What do the screens show for `CO[C@H]1CN(C)C(=O)c2cc(NC(=O)c3ccccc3F)ccc2OC[C@H](C)N(C)C[C@@H]1C`?
AF4-AF9 inh: -0.5; Ecoli rRNA inh: 1; Ecoli rRNA inh OD600: 3; Ecoli rRNA inh RFP: -0.6

Four records picked at random from those above:
What do the screens show for `CC=Cc1ccc2n(c1=O)C[C@H]1[C@H](CO)[C@@H](C(=O)NCCC)[C@@H]2N1CC1CCOCC1` (mixture of isomers)?
AF4-AF9 inh: -26; Ecoli rRNA inh: 1; Ecoli rRNA inh OD600: -5; Ecoli rRNA inh RFP: -0.8

How did CCNC(=O)C[C@H]1C=C[C@@H](NC(=O)C2CCC2)[C@@H](CO)O1 do in these assays?
AF4-AF9 inh: -3.1; Ecoli rRNA inh: 2; Ecoli rRNA inh OD600: 3; Ecoli rRNA inh RFP: 1.1

How did C[C@@H]1CN([C@@H](C)CO)C(=O)c2cccc(NC(=O)Nc3ccc(C(F)(F)F)cc3)c2O[C@H]1CN(C)Cc1ccc(Cl)c(Cl)c1 do in these assays?
AF4-AF9 inh: 1.2; Ecoli rRNA inh: -1; Ecoli rRNA inh OD600: 2; Ecoli rRNA inh RFP: 0.7

How did CNC[C@@H]1Oc2ncc(/C=C/c3ccccc3)cc2C(=O)N([C@@H](C)CO)C[C@@H]1C do in these assays?
AF4-AF9 inh: 9.8; Ecoli rRNA inh: 3; Ecoli rRNA inh OD600: 13; Ecoli rRNA inh RFP: -0.6

Remaining list, next part.
Results for C[C@H]1CN([C@@H](C)CO)S(=O)(=O)c2ccc(C#CC3(O)CCCC3)cc2O[C@@H]1CN(C)C(=O)Cc1ccccc1 ?
AF4-AF9 inh: 1.2; Ecoli rRNA inh: -3; Ecoli rRNA inh OD600: -15; Ecoli rRNA inh RFP: -0.5

What do the screens show for `CC(C)NC(=O)Nc1ccc2c(c1)C(=O)N([C@@H](C)CO)C[C@H](C)[C@H](CN(C)Cc1ccncc1)OCCCC[C@@H](C)O2`?
AF4-AF9 inh: -0.6; Ecoli rRNA inh: 2; Ecoli rRNA inh OD600: 8; Ecoli rRNA inh RFP: 0.1

How did CNC[C@H]1OCCCC[C@@H](C)Oc2ccc(NS(C)(=O)=O)cc2C(=O)N([C@@H](C)CO)C[C@@H]1C do in these assays?
AF4-AF9 inh: -4.7; Ecoli rRNA inh: 6; Ecoli rRNA inh OD600: 1; Ecoli rRNA inh RFP: -3.7

How did Cc1ccc(S(=O)(=O)NC(=O)C2(C)CCN2C(=O)c2ccccc2)cc1 (configuration not stated) do in these assays?
AF4-AF9 inh: -0.4; Ecoli rRNA inh: 2; Ecoli rRNA inh OD600: 2; Ecoli rRNA inh RFP: 0.2

What do the screens show for `C[C@H](CO)N1C[C@H](C)[C@H](CN(C)C(=O)C2CCCCC2)OCCCC[C@H](C)Oc2ccc(NC(=O)Nc3ccc4c(c3)OCO4)cc2C1=O`?
AF4-AF9 inh: 5.2; Ecoli rRNA inh: -1; Ecoli rRNA inh OD600: 7; Ecoli rRNA inh RFP: -0.1

How did CN(C)C(=O)c1cccc(-c2ccc([C@H]3[C@@H](CO)N4CCCCN(CCC(F)(F)F)C[C@H]34)cc2)c1 do in these assays?
AF4-AF9 inh: -5.7; Ecoli rRNA inh: 2; Ecoli rRNA inh OD600: -3; Ecoli rRNA inh RFP: 0.9

How did CCNC(=O)C[C@H]1CC[C@H]2[C@@H](COC[C@@H](O)CN2Cc2ccc(Cl)c(Cl)c2)O1 do in these assays?
AF4-AF9 inh: -0.1; Ecoli rRNA inh: -3; Ecoli rRNA inh OD600: 4; Ecoli rRNA inh RFP: -3.8

How did CC(C)C#Cc1ccc2c(c1)O[C@@H](CN(C)C(=O)CN(C)C)[C@@H](C)CN([C@H](C)CO)S2(=O)=O do in these assays?
AF4-AF9 inh: 3.1; Ecoli rRNA inh: 3; Ecoli rRNA inh OD600: 1; Ecoli rRNA inh RFP: -1.1

Results for Cc1ccccc1-c1cnc(C(O)c2ccccc2)[nH]1 (configuration not stated) ?
AF4-AF9 inh: -4.8; Ecoli rRNA inh: 18; Ecoli rRNA inh OD600: 13; Ecoli rRNA inh RFP: -0.5

How did COCCNC(=O)C[C@@H]1C[C@H]2c3cc(NC(=O)CN(C)C)ccc3O[C@H]2[C@@H](CO)O1 do in these assays?
AF4-AF9 inh: 0.7; Ecoli rRNA inh: 0; Ecoli rRNA inh OD600: -7; Ecoli rRNA inh RFP: -1.7

What do the screens show for `CCCNC(=O)N(C)C[C@@H]1Oc2ncc(-c3ccccc3F)cc2C(=O)N([C@H](C)CO)C[C@H]1C`?
AF4-AF9 inh: -0.9; Ecoli rRNA inh: 1; Ecoli rRNA inh OD600: -4; Ecoli rRNA inh RFP: -4.9

Results for O=C(C[C@H]1C[C@H]2c3cc(NC(=O)C4CCC4)ccc3O[C@H]2[C@H](CO)O1)NC1CCCC1 ?
AF4-AF9 inh: -8.4; Ecoli rRNA inh: 3; Ecoli rRNA inh OD600: 12; Ecoli rRNA inh RFP: -4.0

How did CO[C@@H]1CN(C)C(=O)c2ccc(NC(=O)C3CCOCC3)cc2OC[C@H](C)N(C(=O)c2ccccc2)C[C@@H]1C do in these assays?
AF4-AF9 inh: -2.8; Ecoli rRNA inh: 1; Ecoli rRNA inh OD600: 1; Ecoli rRNA inh RFP: -0.4

What do the screens show for `O=C(C[C@@H]1C[C@@H]2c3cc(NC(=O)c4cccnc4)ccc3O[C@@H]2[C@H](CO)O1)NCc1ccccn1`?
AF4-AF9 inh: -1.1; Ecoli rRNA inh: 4; Ecoli rRNA inh OD600: 5; Ecoli rRNA inh RFP: 1.3

Results for CC(C)CC#Cc1ccc2c(c1)O[C@H](CN(C)C(=O)c1cnccn1)[C@@H](C)CN([C@H](C)CO)S2(=O)=O ?
AF4-AF9 inh: 0.6; Ecoli rRNA inh: -2; Ecoli rRNA inh OD600: -4; Ecoli rRNA inh RFP: 0.4

Results for CC(C)(C)c1ccc(C(=O)N2CCC2(C)C(=O)NS(=O)(=O)c2ccccc2Cl)cc1 (configuration not stated) ?
AF4-AF9 inh: -3.2; Ecoli rRNA inh: 0; Ecoli rRNA inh OD600: -12; Ecoli rRNA inh RFP: -0.1

What do the screens show for `O=C(Nc1ccc(Cl)cc1)N[C@@H]1CC[C@H](CCn2cc(C3(O)CCCC3)nn2)O[C@@H]1CO`?
AF4-AF9 inh: -12; Ecoli rRNA inh: -4; Ecoli rRNA inh OD600: -25; Ecoli rRNA inh RFP: 5.2

Results for N#C[C@H]1[C@@H](c2ccc(-c3cccc(F)c3)cc2)[C@@H](CO)N1C(=O)NC1CCCCC1 ?
AF4-AF9 inh: 0.6; Ecoli rRNA inh: -15; Ecoli rRNA inh OD600: -58; Ecoli rRNA inh RFP: 5.1

How did Cc1ccc(-c2cnc3c(c2)C(=O)N([C@H](C)CO)C[C@@H](C)[C@H](CN(C)CC2CCOCC2)O3)cc1 do in these assays?
AF4-AF9 inh: 0.3; Ecoli rRNA inh: 4; Ecoli rRNA inh OD600: 5; Ecoli rRNA inh RFP: 1.6

How did O=C(C[C@H]1CC[C@H]2[C@@H](COC[C@@H](O)CN2C(=O)c2cccnc2)O1)NCC1CC1 do in these assays?
AF4-AF9 inh: -1.3; Ecoli rRNA inh: 2; Ecoli rRNA inh OD600: 12; Ecoli rRNA inh RFP: -0.4

Results for C[C@H]1CN([C@@H](C)CO)C(=O)c2cc(NC(=O)Nc3ccc4c(c3)OCO4)ccc2O[C@H]1CN(C)Cc1ccc(C(F)(F)F)cc1 ?
AF4-AF9 inh: 4.0; Ecoli rRNA inh: -5; Ecoli rRNA inh OD600: -13; Ecoli rRNA inh RFP: 0.9

Results for C[C@H](CO)N1C[C@H](C)[C@@H](CN(C)Cc2ccc(C(=O)Nc3ccccc3N)cc2)Oc2c(cccc2N(C)C)C1=O ?
AF4-AF9 inh: 1.8; Ecoli rRNA inh: 4; Ecoli rRNA inh OD600: -2; Ecoli rRNA inh RFP: 0.8
